Compound activity as filed in PubChem BioAssay.
D2 potentiator: Beta-Arrestin HTS for Positive Allosteric Modulators of the Human D2 Dopamine Receptor: Potentiators; DiscoveRx D2 beta-arrestin cells, luminescence, 90 min; 100% = 57 uM dopamine signal; AID 624464, 2012; potentiation, % (no concentration beside the values); D(2) dopamine receptor (Homo sapiens), P14416; actives 0.23% (n = 360,000); active = potentiation of 50% or more; inconclusive = 30% to 50%; inactive = 30% or less;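 note: compound concentration not given in the record; tested on top of an EC20 dose of dopamine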
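PathHunter beta-arrestin assay in DiscoveRx D2 cells. Compounds were added with an EC20 of dopamine (50 nM final) for 90 min at 37 deg C. Luminescence was read 1 h after detection reagent, with 57 uM dopamine as the EC100 control.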
PINK1 modulator: A Quantitative High throughput Screen to Identify Chemical Modulators of PINK1 Expression. PINK1 immunofluorescence, high-content cytometry, 24 h. Potency, µM (series often up to 76.6 µM), inactives show at the top dose activation (PINK1 increase), actives largely listed as activators. actives 0.2% (n = 410,000). AID 624263, 2012; active = well fitted activation curve with a large enough effect; inconclusive = small, poorly fitted or top-dose-only effect; inactive = flat fitted curve, though single readings scatter; cell line not stated here;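 note: potency is the fitted concentration of half-maximal effect; % of control where 0% means no effect; nearly all actives have a fitted effect of over 65% in size; a mitochondrial uncoupler was the plate control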
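Cells are seeded, rested 12 hours, then given compound at five concentrations or DMSO for 24 hours. After fixation, blocking and antibody staining, PINK1 amount and mitochondrial localization are scored; CCCP serves as control.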
Sfp PPTase inh: qHTS Assay for Inhibitors of Bacillus subtilis Sfp phosphopantetheinyl transferase (PPTase); 4'-phosphopantetheinyl transferase ffp (Bacillus subtilis), Q9F4F7; Biochemical Sfp PPTase activity, qHTS; Potency, µM, without a hit: max response, negative = inhibition, hits mostly inhibitors; actives 3.5% (n = 310,000); AID 1490, 2009; active = well fitted inhibition curve with a large enough effect; inconclusive = small, poorly fitted or top-dose-only effect, or another doubt; inactive = no such curve, though single readings can be large or run the other way;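 note: the enzyme is Sfp with the accession as filed and its product quenches rhodamine fluorescence; potency is the fitted concentration of half-maximal effect; 0% = enzyme reaction without inhibitor and -100% = no enzyme wells; top concentration of the series not given in the record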
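Buffer: 50 mM Hepes-Na pH 7.6, 10 mM MgCl2, 0.01% Nonidet P-40, 0.01% BSA. Enzyme 15 nM, pre-exposed to compound 15 min; substrates then added and fluorescence change tracked over 30 min.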
D2 agonist: Beta-Arrestin HTS for Positive Allosteric Modulators of the Human D2 Dopamine Receptor: Agonists. D(2) dopamine receptor (Homo sapiens), P14416. activation, % (concentration not given with the values). DiscoveRx PathHunter D2 beta-arrestin, luminescence, 90 min; 100% = 57 uM dopamine signal. actives 0.084% (n = 360,000); in the data active = activation above about 40%; inconclusive = about 15% to 40%; inactive = below about 15%; note: compound concentration not given in the record; the text of the record calls up to 30% inactive
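DiscoveRx PathHunter D2 beta-arrestin cells (2,100/well) attached overnight, then compound-stimulated 90 min at 37 C in HBSS/10 mM HEPES/0.1% Tween-20 buffer; beta-galactosidase complementation read by luminescence after 1 h at ambient temperature. Dopamine 57 uM final (EC100) as control.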
CtBP-E1A blk: qHTS Assay for Inhibitors of the CtBP/E1A Interaction; CtBP / adenovirus E1A interaction (AlphaScreen); AlphaScreen GST-E1A/His-CtBP binding, 1536-well; hits give low values; control for the full effect not named in the record; activity change, % (test concentration not listed); actives 0.49% (n = 340,000); in the data active means activity change below about -65%; inconclusive means about -30% to -65%; inactive means above about -30%; note: % is set by controls: 0 for no effect and ±100 for the full control effect; compound concentration not given in the record
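Homogeneous bead-based format: GST-tagged E1A captured on glutathione donor beads, His-tagged CtBP on nickel acceptor beads; compounds precede bead addition by 2 h at 37 °C.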
Six1-Eya2 blk: qHTS Assay for Inhibitors of the Six1/Eya2 Interaction; Homeobox protein SIX1 (Homo sapiens) + Protein phosphatase EYA2 (Homo sapiens), …; AlphaScreen GST-Six1/His-Eya2 binding, biochemical; hits give low values; control for the full effect not named in the record; activity change, % (concentration not given with the values); actives 0.56% (n = 360,000); AID 651725, 2012; in the data active = activity change below about -65%; inconclusive = about -30% to -65%; inactive = above about -30%; note: % is set by controls: 0 for no effect and ±100 for the full control effect
Target sequence (O00167 whole entry, looked up): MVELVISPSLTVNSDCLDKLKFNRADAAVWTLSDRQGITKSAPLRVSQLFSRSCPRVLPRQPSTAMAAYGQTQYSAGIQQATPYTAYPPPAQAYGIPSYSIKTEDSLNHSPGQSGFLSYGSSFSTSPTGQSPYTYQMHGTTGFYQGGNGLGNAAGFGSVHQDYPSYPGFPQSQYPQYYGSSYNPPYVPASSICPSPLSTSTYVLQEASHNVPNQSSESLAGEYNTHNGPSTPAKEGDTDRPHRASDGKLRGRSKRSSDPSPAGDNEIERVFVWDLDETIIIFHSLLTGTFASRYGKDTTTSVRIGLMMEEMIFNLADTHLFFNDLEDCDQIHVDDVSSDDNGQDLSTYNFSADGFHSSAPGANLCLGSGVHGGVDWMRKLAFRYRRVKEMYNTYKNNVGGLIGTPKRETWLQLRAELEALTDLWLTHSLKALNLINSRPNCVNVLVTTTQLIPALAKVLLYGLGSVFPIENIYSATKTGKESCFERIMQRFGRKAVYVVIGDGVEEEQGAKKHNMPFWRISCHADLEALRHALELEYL
Target sequence (Q15475 whole entry, looked up): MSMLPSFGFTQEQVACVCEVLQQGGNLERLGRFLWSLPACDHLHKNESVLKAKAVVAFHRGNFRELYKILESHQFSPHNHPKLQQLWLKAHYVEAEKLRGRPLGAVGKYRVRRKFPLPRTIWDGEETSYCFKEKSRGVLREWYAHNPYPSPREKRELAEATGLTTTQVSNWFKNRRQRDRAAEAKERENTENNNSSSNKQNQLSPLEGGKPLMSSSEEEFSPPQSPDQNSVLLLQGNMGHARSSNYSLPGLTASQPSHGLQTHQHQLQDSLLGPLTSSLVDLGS
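Homogeneous AlphaScreen proximity assay pairing GST-Six1 with His-tagged Eya2 (added as 5X mix: 250 nM and 500 nM) in 50 mM Tris pH 8.0, 300 mM NaCl, 1 mM TCEP. Glutathione donor and nickel acceptor beads; 1 h, 37 °C, dark.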
TRPV1 potentiator: HTS Assay for Compounds that Act as Potentiators of the Vanilloid Receptor 1; Transient receptor potential cation channel subfamily V member 1 (Homo sapiens), Q8NER1; TRPV1-expressing cells, Fluo-8 calcium influx, capsaicin EC20 potentiation; host cell line not named in the record; control for the full effect not named in the record; potentiation, % at 8.33 µM; actives 0.02% (n = 320,000); AID 540277, 2011; active means potentiation above 80%; inconclusive means 30% to 80%; inactive means below 30%; note: 0% is about no effect
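Fluo-8 calcium influx in TRPV1-expressing cells, kinetic read (ex 480/em 520 nm). Compound added and read 3 min for agonist activity, followed by capsaicin at EC20 final and 2 min further read for enhancement.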
The depositor's hits bear a star; [ ] = dose if it differs, or a comment.

The opening 3 entries, ahead of the listing:
Screening O=C(NCc1ccccc1Cl)C1CCC(CNc2nc(=S)[nH]c3ccccc23)CC1 (stereo unspecified) returned D2 potentiator -5, PINK1 modulator -1.3%, Sfp PPTase inh -4%, D2 agonist 9.0, CtBP-E1A blk -3, Six1-Eya2 blk inconclusive and TRPV1 potentiator 0.
Screening NC(=O)C1CCN(C(=O)c2ccc(NC3=NC4CS(=O)(=O)CC4S3)cc2)CC1 (stereo unspecified) returned D2 potentiator -3, PINK1 modulator 1.0%, Sfp PPTase inh 24%, D2 agonist 1.1, CtBP-E1A blk 11, Six1-Eya2 blk 3 and TRPV1 potentiator -10.
CCOC(=O)c1c(C)[nH]c(C(=O)OCC(=O)NC(C)(C)C)c1C was read as D2 potentiator -2, PINK1 modulator 5.0%, Sfp PPTase inh 17%, D2 agonist 3.2, CtBP-E1A blk -2, Six1-Eya2 blk -8 and TRPV1 potentiator -1.

Main list (from the top)
Screening O=C(NCc1ccccc1Cl)C1CCC(CNc2nc(=S)[nH]c3ccccc23)CC1 (stereo unspecified) returned D2 potentiator -5, PINK1 modulator -1.3%, Sfp PPTase inh -4%, D2 agonist 9.0, CtBP-E1A blk -3, Six1-Eya2 blk inconclusive and TRPV1 potentiator 0.
Screening NC(=O)C1CCN(C(=O)c2ccc(NC3=NC4CS(=O)(=O)CC4S3)cc2)CC1 (stereo unspecified) returned D2 potentiator -3, PINK1 modulator 1.0%, Sfp PPTase inh 24%, D2 agonist 1.1, CtBP-E1A blk 11, Six1-Eya2 blk 3 and TRPV1 potentiator -10.
CCOC(=O)c1c(C)[nH]c(C(=O)OCC(=O)NC(C)(C)C)c1C was read as D2 potentiator -2, PINK1 modulator 5.0%, Sfp PPTase inh 17%, D2 agonist 3.2, CtBP-E1A blk -2, Six1-Eya2 blk -8 and TRPV1 potentiator -1.
For CC(C)(C)NC(=O)CSc1nc2ccc(NC(=O)CSc3nnc(N)s3)cc2s1 the results were D2 potentiator 3, PINK1 modulator -0.6%, Sfp PPTase inh 12%, D2 agonist 1.8, CtBP-E1A blk 0, Six1-Eya2 blk -2 and TRPV1 potentiator -1.
Nn1c(SCc2nc3ccccn3c2Br)nnc1-c1cccnc1 was read as D2 potentiator -11, PINK1 modulator -0.7%, Sfp PPTase inh 0%, D2 agonist 0.5, CtBP-E1A blk 4, Six1-Eya2 blk -7 and TRPV1 potentiator -25.
`Cc1[nH]c2c(Cl)cccc2c(=O)c1CN1CCCC1` gave D2 potentiator -29, PINK1 modulator 0.0%, Sfp PPTase inh 20%, D2 agonist 0.4, CtBP-E1A blk 0, Six1-Eya2 blk 0 and TRPV1 potentiator 7.
For COc1ccc(CNC(=O)c2ccc(-n3ccnc3)c3ccoc23)cc1OC the results were D2 potentiator -17, PINK1 modulator 0.1%, D2 agonist -9.2, CtBP-E1A blk -30 and Six1-Eya2 blk -5.
`COc1ccccc1N(C)S(=O)(=O)c1ccc(C(=O)NC2=NCCS2)cc1` gave D2 potentiator -3, PINK1 modulator 7.8%, Sfp PPTase inh 14%, D2 agonist -1.6, CtBP-E1A blk -2, Six1-Eya2 blk 0 and TRPV1 potentiator -10.
COc1ccc(Br)cc1CN(C)C(C)C(=O)Nc1cc([N+](=O)[O-])ccc1OC (stereo unspecified) was read as D2 potentiator -14, PINK1 modulator 4.1%, Sfp PPTase inh -1%, D2 agonist -1.7, CtBP-E1A blk 1, Six1-Eya2 blk 2 and TRPV1 potentiator -16.
Screening COc1ccc(NS(=O)(=O)c2cccs2)c(OC)c1 returned D2 potentiator -19, PINK1 modulator 1.7%, Sfp PPTase inh -3%, D2 agonist -2.3, CtBP-E1A blk -3, Six1-Eya2 blk 5 and TRPV1 potentiator -7.
Screening CC(C)(C)N(Cc1ccccc1)C(=O)c1ccc(Br)o1 returned D2 potentiator -12, PINK1 modulator 5.7%, Sfp PPTase inh 6%, D2 agonist 5.5, CtBP-E1A blk 2, Six1-Eya2 blk 3 and TRPV1 potentiator -3.
O=C(COc1ccc(Br)cc1Cl)NC(=S)N1CCc2ccccc21 was read as D2 potentiator -12, PINK1 modulator 1.2%, Sfp PPTase inh 0%, D2 agonist -0.1, CtBP-E1A blk 3, Six1-Eya2 blk 2 and TRPV1 potentiator 5.
Screening CCCOc1ccc(-c2c(C(=O)N/N=C/C3CCCCC3)nnn2-c2nonc2N)cc1 returned D2 potentiator -6, PINK1 modulator 0.1%, Sfp PPTase inh 23%, D2 agonist 7.8, Six1-Eya2 blk 3 and TRPV1 potentiator -1.
Screening O=C(NCC(c1ccco1)N1CCOCC1)c1cccc(Cl)c1 (stereo unspecified) returned D2 potentiator -1, PINK1 modulator 0.9%, D2 agonist -2.0, CtBP-E1A blk 0, Six1-Eya2 blk 10 and TRPV1 potentiator -13.
For COc1ccc(CCNC(=O)C2CC3Cn4c(nc5cc6ccccc6cc54)C3N2C)cc1 (stereo unspecified) the results were D2 potentiator -22, PINK1 modulator 3.6%, Sfp PPTase inh -4%, D2 agonist -1.7, CtBP-E1A blk 3, Six1-Eya2 blk 0 and TRPV1 potentiator -8.
`COc1cccc(NC(=O)Nc2nnc(Cc3ccccc3)s2)c1` gave D2 potentiator -21, PINK1 modulator 8.7%, Sfp PPTase inh -2%, D2 agonist -2.8, Six1-Eya2 blk 0 and TRPV1 potentiator 4.
COc1ccccc1NC(=O)/C=C1\SCC(=O)N1C was read as D2 potentiator -10, PINK1 modulator 0.2%, Sfp PPTase inh 9%, D2 agonist -4.1, CtBP-E1A blk 1, Six1-Eya2 blk 3 and TRPV1 potentiator -22.
Cc1ccc(C(=O)CSC2=C(C#N)C(c3ccco3)C3=C(CCCC3=O)N2)cc1 (stereo unspecified) was read as D2 potentiator -18, PINK1 modulator 11%[38.3 µM], Sfp PPTase inh -23%, D2 agonist -2.0, CtBP-E1A blk -18, Six1-Eya2 blk -19 and TRPV1 potentiator 1.
For Cn1c(=O)n(C/C=C/c2ccccc2)c(=O)c2c1nc1n2CCCN1Cc1ccccc1 the results were D2 potentiator -15, PINK1 modulator -1.7%, Sfp PPTase inh 9%, D2 agonist -4.3, CtBP-E1A blk -4, Six1-Eya2 blk -29 and TRPV1 potentiator -3.
For O=C(CCc1nc(-c2ccccc2)no1)N1CCCC1 the results were D2 potentiator 11, PINK1 modulator 0.6%, Sfp PPTase inh 13%, D2 agonist -0.1, CtBP-E1A blk -1, Six1-Eya2 blk -3 and TRPV1 potentiator -17.
`O=c1c2ccsc2ncn1Cc1ccc(Cl)cc1` gave D2 potentiator -2, PINK1 modulator 0.9%, Sfp PPTase inh 1%, D2 agonist -8.3, CtBP-E1A blk 12, Six1-Eya2 blk 5 and TRPV1 potentiator 8.
Screening CN1CCN(c2ccc(-c3ccnn3C(=O)Nc3cccc(C(F)(F)F)c3)cc2)CC1 returned D2 potentiator -6, PINK1 modulator 25%, Sfp PPTase inh -21%, D2 agonist -9.3, CtBP-E1A blk -16, Six1-Eya2 blk 0 and TRPV1 potentiator 13.
`COCCN1CN(S(=O)(=O)c2cccc(Cl)c2)c2nc3ccccc3nc21` gave D2 potentiator -7, PINK1 modulator 3.0%, Sfp PPTase inh 2%, D2 agonist -0.5, CtBP-E1A blk -9, Six1-Eya2 blk -3 and TRPV1 potentiator -20.
`NC(=O)CC[C@@H]1NC(=O)[C@@H]2CCCN2C(=O)c2cc([N+](=O)[O-])cc(I)c2NCCCC[C@@H](C(=O)NC(CC(=O)O)C(N)=O)NC1=O` (stereo partly specified) gave D2 potentiator -49, PINK1 modulator 2.8%, Sfp PPTase inh 17%, D2 agonist -2.6, CtBP-E1A blk 5, Six1-Eya2 blk -3 and TRPV1 potentiator -6.
Screening Cc1ccc(-c2csc(-c3cc(C)on3)n2)cc1 returned D2 potentiator 0, PINK1 modulator 3.0%, Sfp PPTase inh 8%, D2 agonist -3.6, CtBP-E1A blk 5, Six1-Eya2 blk 21 and TRPV1 potentiator -10.
For COc1cc(/C=N/NC(=O)c2cccnc2)ccc1OC(=O)c1ccco1 the results were D2 potentiator -2, PINK1 modulator inconclusive, Sfp PPTase inh 6%, D2 agonist 0.2, CtBP-E1A blk 2 and Six1-Eya2 blk -1.
Screening COc1ccccc1-c1cc2c(c3c1ccn3C)C1CCC2C1 (stereo unspecified) returned D2 potentiator -7, PINK1 modulator 6.7%, D2 agonist -3.2, CtBP-E1A blk -21 and Six1-Eya2 blk -15.
COc1ccc(C(=O)N2CCN(Cc3ccc4c(c3)OCO4)CC2)cc1[N+](=O)[O-] was read as D2 potentiator -1, PINK1 modulator 0.9%, Sfp PPTase inh 8%, D2 agonist -4.2, CtBP-E1A blk 0, Six1-Eya2 blk 0 and TRPV1 potentiator 11.
`CC1(C)CC(=O)C2=C(C1)OC1=C(C(=O)CC(C)(C)C1)C2c1ccc(O)c([N+](=O)[O-])c1` gave D2 potentiator -8, PINK1 modulator -0.2%, Sfp PPTase inh 8%, D2 agonist -3.3, Six1-Eya2 blk 4 and TRPV1 potentiator 8.
Screening Cc1cnc(C(=O)OCC(=O)N2CCN(S(=O)(=O)c3ccc(Cl)cc3)CC2)cn1 returned D2 potentiator -8, PINK1 modulator 2.3%, D2 agonist -5.9, CtBP-E1A blk 30, Six1-Eya2 blk 41 and TRPV1 potentiator -7.
For O=C(NC(=S)Nc1ccc(N2CCOCC2)c(Cl)c1)C(c1ccccc1)c1ccccc1 the results were D2 potentiator 1, PINK1 modulator 1.5%, Sfp PPTase inh 14%, D2 agonist -0.8, CtBP-E1A blk 0, Six1-Eya2 blk -18 and TRPV1 potentiator 2.
For O=C(Nc1nnc(C2CC2)s1)c1ccncc1 the results were D2 potentiator -9, PINK1 modulator 3.0%, Sfp PPTase inh 13%, D2 agonist -0.8, CtBP-E1A blk 1, Six1-Eya2 blk 28 and TRPV1 potentiator 4.
